HSV augment = increases HSV replication in cells. 220,000 tested, 0.005% active. HSV replication augmentation in cells, fold increase. maximum fold increase;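 active means peak rise of 1.5-fold or more in the series; tested in PC3 cells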;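 further: first round at 10 µM; read as green reporter fluorescence; hits show the peak of a series up to 25 µM; 1 = signal of infected wells without compound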
HSV augment primary fold = further read-out of HSV augment, marked with its call; fold increase; compound at 10 µM; measured here: primary screen fold increase 10 uM; tested in PC3 cells;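 GFP signal in the first replicate; 1 = infected wells without compound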
An asterisk follows results filed as active; i = inactive. Not all compounds are listed. The share of hits here may be higher or lower than overall.

SMILES	HSV augment	HSV augment primary fold
CC(C)(C(=O)c1cccnc1)c1cccnc1	i	1.02
O=C(OC1C[C@@H]2CC3C[C@H](C1)N2CC3=O)c1c[nH]c2ccccc12 (stereo partly drawn)	i	0.61
CN(C)CCC[C@@]1(c2ccc(F)cc2)OCc2cc(C#N)ccc21	i	0.86
CCN1CC(CCN2CCOCC2)C(c2ccccc2)(c2ccccc2)C1=O (stereo not drawn)	i	1.02

Record cards (already shown). Order of screens: HSV augment, HSV augment primary fold
`CN(C)CCC[C@@]1(c2ccc(F)cc2)OCc2cc(C#N)ccc21` in the list: i, 0.86
`CCN1CC(CCN2CCOCC2)C(c2ccccc2)(c2ccccc2)C1=O` (stereo not drawn) in the list: i, 1.02

Look-ups from the list:
CN(C)CCC[C@@]1(c2ccc(F)cc2)OCc2cc(C#N)ccc21 in HSV augment primary fold has 0.86
CCN1CC(CCN2CCOCC2)C(c2ccccc2)(c2ccccc2)C1=O (stereo not drawn) in HSV augment primary fold has 1.02

Screens: PubChem BioAssay, SRMLSC
